# Assay outcomes (PubChem)
# 2A Renilla – Primary qHTS Assay for Foot and Mouth Disease Virus Antivirals against NCGC Sytravon and CBC Compound Libraries: Renilla Luciferase Signal; HEK cells with a luciferase reporter of 2A StopGo recoding; Potency, µM (titrated, usually from 57.5 µM), without a hit: at the top dose signal change, negative = less light; hit rate 0.32% among 120,000; AID 1745857, 2022; active means well fitted falling curve with a large enough effect; inconclusive means small, poorly fitted or top-dose-only effect; inactive means no such curve, though single readings can be large or run the other way; also: nearly all actives have a fitted effect of over 55% in size; overnight with compound
# StopGo FLuc – Primary qHTS Assay for Foot and Mouth Disease Virus Antivirals against NCGC Sytravon and CBC Compound Libraries: Firefly Luciferase Signal; HEK cells with a luciferase reporter of 2A StopGo recoding; hit rate 0.23% among 120,000; AID 1745856, 2022; Potency, µM (highest dose often 57.5 µM), for inactives: top-dose signal change, negative = less light; active = well fitted falling curve with a large enough effect; inconclusive = small, poorly fitted or top-dose-only effect; inactive = no such curve, though single readings can be large or run the other way; also: nearly all actives have a fitted effect of over 60% in size; overnight with compound
# Active calls of the source: *; ? = inconclusive; & = joins results of further samples; [ ] = dose if it differs, or a comment. % is scaled to controls: 0 for no effect and ±100 for the full control effect; potency is read from the fitted curve at half-maximal effect.
SMILES,2A Renilla,StopGo FLuc
O=C(CSc1nnc2c3c4c(sc3ncn12)CCCC4)Nc1ccc(Br)cc1,-1%,7%
COc1nc(C(=O)N2CCN(CC(F)(F)F)CC2)cc2ccccc12,29%,19%
NC(=O)c1ccsc1NC(=O)COC(=O)c1cc(Cl)ccc1Cl,6%,0%
CCOc1ccc(-c2nonc2NC(=O)c2ccco2)cc1,?,5%
COc1ccccc1-c1cc2nc(C)c(CCC(=O)NCc3cccc(Cl)c3)c(C)n2n1,1%,?
CC(C)(C)NC(=O)CC1(C(=O)NCc2ccc(F)cc2)CCCC1,-15%[1.06 µM],?
CC1CCCCN1CC(=O)N(C)CC(=O)Nc1ccc(Cl)c(C(F)(F)F)c1 (stereo unspecified),-10%,-3%
Cc1nn2c(=O)cc(COC(=O)c3ccc(NC(=O)COc4ccccc4F)cc3)nc2s1,2%,6%
Cc1ccc(Sc2c(C)nn(C(C)(C)C)c2OC(=O)CC(C)C)cc1,0%,-12%
Cc1noc(C)c1Cn1c(=O)c2c(ncn2CCC(C)C)n(Cc2ccccc2)c1=O,-10%,-13%
Cn1c(SCc2cccc(F)c2)nc2c([nH]c3ccccc32)c1=O,-10%,-6%
Cn1nc(C(=O)OCC(=O)NC(=O)c2ccc(OC(F)F)cc2)c2ccccc2c1=O,3%,-3%
COC(=O)C1=C(C)NC(=O)C1(NC(=O)c1ccccc1F)C(F)(F)F (stereo unspecified),-2%,7%
COc1ccc(Cn2c(C(=O)O)c(CNCc3cccs3)c3ccc(C)cc32)cc1,67%[activator],?
CN(Cc1nc(-c2ccccc2Cl)no1)C(=O)COc1ccc2ccccc2c1Br,?,?
COCCNC(=O)CSc1c2c(nc3cc(Cl)ccc13)CCCC2,11%,32%[activator]
COc1cccc(/C=C(\C#N)c2nc3ccccc3c(=O)[nH]2)c1OC,6%,-17%
COc1ccc(CCNC(=O)Cc2c(C)c3c(OC)cc(OC)cc3oc2=O)cc1,-6%,-1%
CC(C)NC(=O)NC(=O)CCl,-1%,0%
CCOCCCNC(=O)/C=C/c1ccc(OC)cc1,-9%[1.06 µM],70%[activator]

# In another format: results already given.
O=C(CSc1nnc2c3c4c(sc3ncn12)CCCC4)Nc1ccc(Br)cc1
  2A Renilla: -1%; StopGo FLuc: 7%

COc1nc(C(=O)N2CCN(CC(F)(F)F)CC2)cc2ccccc12
  2A Renilla: 29%; StopGo FLuc: 19%

NC(=O)c1ccsc1NC(=O)COC(=O)c1cc(Cl)ccc1Cl
  2A Renilla: 6%; StopGo FLuc: 0%

# Single records (already shown). Order of screens: 2A Renilla | StopGo FLuc
# Listed for `NC(=O)c1ccsc1NC(=O)COC(=O)c1cc(Cl)ccc1Cl` : 6% | 0%
# Listed for `O=C(CSc1nnc2c3c4c(sc3ncn12)CCCC4)Nc1ccc(Br)cc1` : -1% | 7%

# Single entries from above:
# `Cn1nc(C(=O)OCC(=O)NC(=O)c2ccc(OC(F)F)cc2)c2ccccc2c1=O` | StopGo FLuc = -3%
# `Cc1ccc(Sc2c(C)nn(C(C)(C)C)c2OC(=O)CC(C)C)cc1` | 2A Renilla = 0%

# The listing picks up, starting 7 compounds before the break.
SMILES,2A Renilla,StopGo FLuc
COc1ccc(Cn2c(C(=O)O)c(CNCc3cccs3)c3ccc(C)cc32)cc1,67%[activator],?
CN(Cc1nc(-c2ccccc2Cl)no1)C(=O)COc1ccc2ccccc2c1Br,?,?
COCCNC(=O)CSc1c2c(nc3cc(Cl)ccc13)CCCC2,11%,32%[activator]
COc1cccc(/C=C(\C#N)c2nc3ccccc3c(=O)[nH]2)c1OC,6%,-17%
COc1ccc(CCNC(=O)Cc2c(C)c3c(OC)cc(OC)cc3oc2=O)cc1,-6%,-1%
CC(C)NC(=O)NC(=O)CCl,-1%,0%
CCOCCCNC(=O)/C=C/c1ccc(OC)cc1,-9%[1.06 µM],70%[activator]
CSc1cccc(NC(=O)C2CCN(C(=O)c3cnn(-c4ccccc4)c3-n3cccc3)CC2)c1,-16%,-12%
COc1cc2[nH]c(=O)n(CCCC(=O)N3CCN(c4cccc(C(F)(F)F)c4)CC3)c(=O)c2cc1OC,-12%,-15%
COc1cc(NC(=O)C2=CC(c3ccc(F)cc3)=NS(=O)(=O)N2C)cc(OC)c1OC,-16%,-21%
O=C(c1cc(C2CC2)nn1-c1ccccc1)N1CCN(Cc2ccccc2F)CC1,21%,8%
Cc1ccccc1CN1CCC(N2CCCCCC2)CC1,?,25µM*
Cc1cccc(-c2ocnc2C(=O)Nc2cc(C)ccc2C)c1,-4%,6%
N#CCN(C(=O)c1cccs1)C1CC1,4%,2%
CCOC(=O)COc1nc(C)c2c(c1C#N)CCCC2,-7%,-2%
CC1(C)CC(C)(c2ccccc2)c2cccc(C(=O)O)c2N1 (stereo unspecified),-5%,?
CSc1ccc(CCNC(=O)c2ccc3c(c2)c(C)c(C)n3Cc2ccc(F)cc2)cc1,25%,18%
COc1ccccc1CNC(=O)CCCCn1c(=O)c2ccccc2n(Cc2ccccc2C)c1=O,-4%,10%
O=C(NCC(=O)N1CCCC1)C(=O)Nc1ccc2cc[nH]c2c1,-3%,160%[activator]
O=C(COc1coc(CN2CCCCC2)cc1=O)NCc1ccc(Cl)cc1,-7%,9%
Cc1ccc(NC(=O)CN2C(=O)CSc3ccc(S(=O)(=O)N4CCCC4)cc32)cc1F,32%[activator],-17%
C=Cc1c(C)n[nH]c1C,-5%,4%
Cc1ccc(CNC(=O)C2CCN(Cc3nc(-c4cccc(Br)c4)oc3C)CC2)cc1,358%[activator],-13%
CCOC(=O)C1=C(C)N(c2ccc3c(c2)OCO3)C(=O)NC1c1ccccc1 (stereo unspecified),10%,23%
C/C(=N\NC(=O)c1ccc(C(C)(C)C)cc1)C(C)C,27%,0%
Cc1cccc(S(=O)(=O)Nc2nc3ccccc3nc2Nc2ccc3c(c2)OCO3)c1,7%,8%
CCN(CC)S(=O)(=O)c1ccc2c(c1)c(=O)n(CC(=O)N1CCCCCC1)c(=O)n2C,-8%,-12%
COC(=O)c1ccc(C)c(NC(=O)COc2ccc3c(C)cc(=O)oc3c2)c1,3%,4%
CC1CCc2c(sc(NC(=O)CC(C)(C)C)c2C#N)C1 (stereo unspecified),6%,0%
CCCCCn1nc(C(=O)Nc2ccc(C(C)=O)cc2)c2ccccc2c1=O,27%,129%[activator]
CCOc1ccc(NC(=O)CSc2nc(C)c(C(=O)Nc3ccccc3)c(-c3ccc(Cl)cc3)c2C#N)cc1,-11%,-14%
Cc1ccc(NC(=O)/C(C#N)=C/c2cc(C)n(-c3ccc(F)cc3)c2C)cc1C,6%,-15%
CCOc1ccc(N(CC)S(=O)(=O)N2CCCC(C(=O)NCCc3ccccc3OC)C2)cc1 (stereo unspecified),55%[activator],-11%
COc1ccc(C(=O)Oc2c(Sc3ccccc3)c(C)nn2-c2ccccc2)c(OC)c1,?,?
CCN(CC)c1ccc(-c2nc(-c3ccccn3)no2)cc1[N+](=O)[O-],-8%,0%
CCCCN(Cc1ccccc1)C(=O)C1CCN(C(=O)c2csc(Nc3ccc(C)cc3)n2)CC1,-13%,?
CN1CCN(C(=O)C(=O)Nc2c3c(nn2-c2cccc(Cl)c2)CSC3)CC1,8%,-12%
CN(CC12CC3CC(CC(C3)C1)C2)C(=O)C1CCN(C(=O)c2ccc(C(F)(F)F)cc2)CC1,9%,-8%
CC(C)(C)c1ccc(S(=O)(=O)N2CCN(Cc3noc(CCC(=O)N4CCCCC4)n3)CC2)cc1,-5%,18%
COc1cccc(OC)c1C(=O)N[C@@H]1C(=O)N2[C@@H]1SC(C)(C)[C@@H]2C(=O)O,6%,30%[11.5 µM]
COc1ccc(C(O)(CN)C(F)(F)F)cc1OC (stereo unspecified),10%,-4%
C=CCNc1oc(-c2ccc(COc3ccc(C)cc3)o2)nc1C#N,16%,23%
Brc1ccc(CN2CCc3nc(Nc4ccccc4)ncc3C2)s1,?,?
Cc1cc(=O)oc2cc(OCC(=O)NCC3(N4CCCCC4)CCCCC3)ccc12,-7%,-9%
Cc1cc(OC(C)C(=O)NC2CC(C)(C)NC(C)(C)C2)c2c(C)cc(=O)oc2c1 (stereo unspecified),-11%,8%
Cc1c(CC(=O)N2CCN(CCc3ccccn3)CC2)c(=O)oc2cc(O)ccc12,-5%,0%
CCOc1ccc(S(=O)(=O)NCc2ccco2)cc1C(C)C,30%,-8%
COc1ccc(Cl)cc1NS(=O)(=O)c1ccc2[nH]c3c(c2c1)CCCC3,348%[activator],19%
Fc1ccc(C2=Nc3ccc(Br)cc3NC(c3cccs3)=N2)cc1,0%,185%[activator]
CCOc1ccc(Br)cc1C(=O)Oc1ccc(C)cc1Br,12%,0%
COc1ccc(-c2nc3c4ccccc4n(CC(=O)N4CCN(c5ccc(F)cc5)CC4)c(=O)n3n2)cc1,-4%,-2%
Cc1ccc(C(N)=O)c(OCc2coc(-c3ccccc3)n2)c1,-24%,-4%
COc1ccc(Cl)cc1NC(=O)CCc1ncc(-c2ccc(F)cc2F)o1,-11%,8%
Cc1ccc(C)c(-n2cc(-c3ccccc3)nc2SCC(=O)Nc2ccccc2)c1,13%,-6%
Cc1ccc(Cn2cc(CN(C(C)(C)C)S(=O)(=O)c3ccccc3Br)nn2)cc1,121%[activator],-5%
Fc1ccc(-c2[nH]ncc2CNCc2cccc(Cn3cccn3)c2)cc1,1%,7%
Cc1ccc(C)c(NC(=O)CSc2nc3c(c(=O)[nH]2)CCCC3)c1,-8%,-6%
CC(C)c1ccc(-c2nnn(Cc3cc4c(cc3Br)OCO4)n2)cc1,-5%,-7%
COc1ccc(CCc2nnc(NS(=O)(=O)Cc3ccccc3)s2)cc1,-7%,4%
CSc1nc2n(n1)C(c1ccccc1)C1=C(CCCC1=O)N2 (stereo unspecified),0%,-8%
Cc1ccc(NC(=O)CN(C)S(=O)(=O)c2ccc(C(=O)N3CCOCC3)s2)c(Cl)c1,?,?
COC(=O)c1ccc(CSc2nc3ccncc3n2Cc2ccc(F)cc2)cc1,-2%,69%[activator]
COc1ccc(C(=O)N2CCN(c3nc4ncccc4o3)CC2)cc1C#N,-12%,-2%
CCCN(CCC)C(=O)Cn1c(=O)n(-c2ccc(C)cc2)c(=O)c2ccc(C(=O)NCc3ccccc3Cl)cc21,93%[activator],0%
CCOc1ccc(NC(=O)CCNS(=O)(=O)c2cccs2)cc1,49%[activator],38%[activator]
CCCN(CCC)C(=O)Cn1nc2cc(C)nc(N3CCc4ccccc4C3)n2c1=O,0%,0%
O=C(CSc1nncn1CCc1cccs1)Nc1ccccc1Cl,14%,16%

# Remaining list, next part.
SMILES,2A Renilla,StopGo FLuc
COc1ccccc1-n1c(=O)c2sccc2n(CC(=O)NCCC(C)C)c1=O,-9%,-1%
Cc1ccc(S(=O)(=O)c2cn(Cc3ccccc3Cl)c3ccc(F)cc3c2=O)cc1,16%,-13%
CC(=O)N1CCc2cc(CNS(=O)(=O)c3ccc(F)cc3)ccc21,52%[activator],85%[activator]
Cc1[nH]c2ccccc2c1C(c1ccccc1F)c1c(C)[nH]c2ccccc12,5%,10%
Cc1ccc(-c2cc3ccccc3n2C)cc1,0%,0%
CC(C)(C)CC(=O)N1CCN(CCc2ccccc2)CC1,20%,0%
Cc1cc(Cl)c2[nH]ncc2n1,-5%,-2%
Cc1ccccc1C(=O)Nc1ccc(C(=O)OCc2cc(=O)n3c4c(sc3n2)CCCC4)cc1,2%,14%
Cc1ccc(C(=O)Nc2cccc(OCc3cc(=O)n4c5c(sc4n3)CCCC5)c2)cc1,-9%,38%[activator]
CCCCCN(CCCCC)C(=O)C(CCC(=O)O)NC(=O)c1ccc(Cl)c(Cl)c1 (stereo unspecified),-6%,-5%[11.5 µM]
CCCn1c(=O)c2sccc2n2c(CCCC(=O)N3CCN(c4ccccc4)CC3)nnc12,-1%,-9%
Clc1ccc(CN2C3=NCCN3c3ccccc32)c(Cl)c1,14%,13%
Cc1cc(Br)ccc1NC(=O)c1cc2c(s1)-c1ccccc1SC2,-31%,-7%
O=C(NCCc1ccccc1)C(=O)NCC(c1cccs1)S(=O)(=O)c1cccs1 (stereo unspecified),9%,4%
Cc1ccc(NC(=O)C2CCN(S(=O)(=O)c3ccc4c(c3)CCCC(=O)N4)CC2)c(Cl)c1,8%,10%
O=C(Nc1ccc(Br)cc1)C1CCN(c2cnccn2)CC1,-6%,-5%
CCc1ccc(NC(=O)C(CC)n2nnc(C(=O)OC)c2C(=O)OC)cc1 (stereo unspecified),-21%,-2%
CC(=O)Nc1ccc(NC(=O)c2cnn(-c3ccccc3F)c2C)cc1C,-7%,5%
O=C(Nc1cccc(Cl)c1)c1cc2c(=O)n3ccccc3nc2n1Cc1ccccc1,2%,39%[activator]
Cc1ccccc1C1C(C#N)=C(N)OC2=C1C(=O)CC(C)(C)C2 (stereo unspecified),-1%,5%
CCOC(=O)c1ccc(NC(=O)CSc2nc(-c3ccc(F)cc3)cc(C(F)(F)F)c2C#N)cc1,-10%,3%
Cc1ccc(Cl)cc1NC(=O)N1CCc2cc(S(=O)(=O)N3CCC(C)CC3)ccc21,-2%&23%,-7%&0%
CCc1nnc2c3ccccc3nc(N3CCN(c4ccc(C)cc4C)CC3)n12,-3%,-3%
O=C(O)c1ccccc1C(=O)/C=C/c1cccs1,-25%,24%
COCCn1c(N2CCN(Cc3ccc(F)cc3)CC2)nc2c1c(=O)[nH]c(=O)n2C,-7%,2%

# Not all compounds are listed; count on the stated rates, not on these rows.
